EPAC2 ant val: human EPAC2 antagonism, validation; AID 1645886; EPAC2 Rap1B BODIPY-GDP exchange, fluorescence; 1.7% of 16,000 active; Potency, µM (top dose mostly 112 µM), for the others: top-dose activity, negative = inhibition, most hits filed as inhibitors; active = well fitted inhibition curve with a large enough effect; inconclusive = small, poorly fitted or top-dose-only effect; inactive = no such curve, though single readings can be large or run the other way;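 also: 100% = activation by cAMP agonist control; nearly all actives have a fitted effect of over 40% in size; the record reuses the description of the EPAC1 agonist screen; inactives centre near -10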
Target sequence (Q8WZA2 whole entry, looked up): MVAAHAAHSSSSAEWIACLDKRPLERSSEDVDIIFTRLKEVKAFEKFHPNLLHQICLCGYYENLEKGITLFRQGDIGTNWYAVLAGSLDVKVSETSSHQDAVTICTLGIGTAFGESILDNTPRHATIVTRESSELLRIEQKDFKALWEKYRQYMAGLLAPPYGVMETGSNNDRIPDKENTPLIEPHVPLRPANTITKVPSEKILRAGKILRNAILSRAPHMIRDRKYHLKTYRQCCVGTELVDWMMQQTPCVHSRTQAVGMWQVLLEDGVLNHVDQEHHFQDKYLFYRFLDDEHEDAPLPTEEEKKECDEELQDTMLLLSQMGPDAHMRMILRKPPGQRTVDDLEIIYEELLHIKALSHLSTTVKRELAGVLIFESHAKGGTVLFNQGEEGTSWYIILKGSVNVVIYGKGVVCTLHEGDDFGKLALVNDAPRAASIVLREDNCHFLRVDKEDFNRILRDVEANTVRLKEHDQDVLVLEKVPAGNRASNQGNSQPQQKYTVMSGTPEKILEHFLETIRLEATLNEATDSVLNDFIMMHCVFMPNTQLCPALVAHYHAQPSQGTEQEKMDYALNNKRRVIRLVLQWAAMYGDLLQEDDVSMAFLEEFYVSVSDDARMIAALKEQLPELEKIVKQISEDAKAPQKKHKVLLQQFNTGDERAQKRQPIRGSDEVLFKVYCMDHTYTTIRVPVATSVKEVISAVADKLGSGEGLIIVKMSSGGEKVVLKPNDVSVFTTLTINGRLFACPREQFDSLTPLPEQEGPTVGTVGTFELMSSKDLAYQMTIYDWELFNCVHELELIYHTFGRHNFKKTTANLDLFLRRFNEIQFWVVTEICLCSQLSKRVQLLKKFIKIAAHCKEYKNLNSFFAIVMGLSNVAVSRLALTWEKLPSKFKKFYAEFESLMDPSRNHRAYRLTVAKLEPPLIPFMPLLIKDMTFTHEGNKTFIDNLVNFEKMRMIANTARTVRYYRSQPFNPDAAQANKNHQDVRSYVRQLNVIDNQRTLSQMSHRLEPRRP
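Normalized against a 6.5 mM cAMP agonist control, compounds were tested on 100 nM EPAC2 exchanging Rap1B-bound BODIPY-GDP (250 nM) for 50 uM GDP. Fluorescence drop (ex 480, em 540 nm) was tracked at room temperature over 30 min at 5-min intervals.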
* = called active by the depositor; ? = inconclusive; & = joins results of further samples; [ ] = remark or other dose. Potency is read from the fitted curve at half-maximal effect. These rows are one share of the data, so the mix of outcomes need not match the whole.

SMILES	EPAC2 ant val
CC(C)CCC(=O)O[C@H]1CC[C@H]2[C@@H]3CCC4=CC(=O)CC[C@]4(C)[C@H]3CC[C@]12C	-13.6%
Cc1ccc(S(=O)(=O)N[C@@H](CCCCN)C(=O)CCl)cc1	20.6%&13.0%
CNc1ccc(C(=O)CC(O)CCC(C)C2OC(=O)CC(O)CC(=O)CC(O)CC(O)CC(O)CC(O)CC3(O)CC(O)C(C(=O)OC)C(CC(O[C@@H]4O[C@H](C)[C@@H](O)[C@H](N)[C@@H]4O)/C=C/C=C/C=C/C=C/C=C/C=C/C=C/C2C)O3)cc1 (some centres undefined)	-24.9%
O=C(/C=C/c1ccc(Cl)cc1)N[C@@]12CCC(=O)[C@@H]3Oc4c(O)ccc5c4[C@@]31CCN(CC1CC1)C2C5	-0.7%
Cc1cc(OC(=O)N2CCCCC2)c(C(C)C)cc1[N+](C)(C)C	-7.6%
CC(=O)OCC(=O)[C@H]1CC[C@H]2[C@@H]3CC[C@H]4C[C@H](O)CC[C@]4(C)[C@H]3C(=O)C[C@]12C	-11.2%[56.6 µM]
CCC(C)(C)c1ccc(O)cc1	-10.8%
OC[C@H]1O[C@@H](n2cnc3cc(Cl)c(Cl)cc32)[C@H](O)[C@H]1O	8.4%
COc1cccc2c1cc([N+](=O)[O-])c1c(C(=O)O)cc3c(c12)OCO3	-20.1%[151 µM]
COC(=O)[C@]1(C)CC[C@@]2(C)CC[C@@]3(C)C4=CCc5c(cc(O)c(O)c5C)[C@]4(C)CC[C@@]3(C)C2C1 (some centres undefined)	-11.5%
CCN(CC)CCOC(=O)C(C)(c1ccccc1)c1ccccc1	2.9%
Nc1ccccc1	-14.5%
C[C@@H](N)C(=O)c1ccccc1	19.2%[239 µM]
CCOC(=O)c1ncn2c1CN(C)C(=O)c1c(I)cccc1-2	-3.6%
CCOC(=O)NC(O)C(Cl)(Cl)Cl (centres undefined)	13.6%
COc1cc(=O)n2c(c1C(=O)N(C)Cc1nonc1C)CCN(C(=O)C1C(C)(C)C1(C)C)CC2	?
CNC(C)Cc1ccccc1OC (centres undefined)	15.8%
C[C@@H]1O[C@H](C[N+](C)(C)C)C[C@H]1O	7.8%
CN[C@H]1C[C@@H](N)[C@H](O)[C@@H](O[C@@H]2O[C@H](CO)[C@H](O)[C@@H]3OC4(O[C@H]23)O[C@H](C(N)CO)[C@H](O)[C@H](O)[C@H]4O)[C@@H]1O (some centres undefined)	-15.9%&-8.1%
CC1CC[C@@]2(OC1)O[C@@H]1[C@@H](O)[C@H]3C4CC[C@H]5C[C@@H](O[C@@H]6O[C@H](CO)[C@H](O[C@@H]7O[C@H](CO)[C@@H](O)[C@H](O[C@@H]8OC[C@@H](O)[C@H](O)[C@H]8O)[C@H]7O[C@@H]7O[C@H](CO)[C@@H](O)[C@H](O[C@@H]8O[C@H](CO)[C@@H](O)[C@H](O)[C@H]8O)[C@H]7O)[C@H](O)[C@H]6O)[C@H](O)C[C@]5(C)C4CC[C@]3(C)[C@H]1[C@@H]2C (some centres undefined)	-25.0%
Oc1ccc2c3c1O[C@H]1c4oc5ccccc5c4C[C@@]4(O)C(C2)N(CC2CC2)CC[C@]314	-13.4%
O=C1/C(=C\c2ccccc2)C[C@@]2(O)[C@H]3Cc4ccc(O)c5c4[C@@]2(CCN3CC2CC2)[C@H]1O5	-4.7%
COc1ccc2c(c[n+](C)c3c4cc5c(cc4ccc23)OCO5)c1OC	-20.1%
COc1cc2c(cc1O)CCNC2C (centres undefined)	-4.6%
CC(C)(C#N)O[C@H]1OC(CO)C(O)C(O)C1O (some centres undefined)	-3.5%
C[C@H](Cc1ccc2c(c1)OC(C(=O)O)(C(=O)O)O2)NC[C@H](O)c1cccc(Cl)c1	-2.1%
O=Cc1ccco1	-25.1%
CCO/N=C(\CC)C1=C(O)CC(c2c(C)cc(C)cc2C)CC1=O (centres undefined)	?
CC(C)(O)[C@@H]1[C@H]2OC(=O)[C@@H]1[C@]1(O)C[C@H]3O[C@]34C(=O)O[C@H]2[C@@]14C (tested in a mixture with another compound)	-22.3%
O=C(/C=C\c1ccc(Cl)cc1)N[C@@]12CCC(=O)[C@@H]3Oc4c(O)ccc5c4[C@@]31CCN(CC1CC1)[C@@H]2C5	-19.6%
CC(C)[C@H](NC(=O)[C@H](CCC(=O)O)NC(=O)[C@H](Cc1ccccc1)NC(=O)[C@H](C)NC(=O)[C@@H](N)Cc1ccc(O)cc1)C(=O)N[C@H](C(=O)NCC(N)=O)C(C)C	3.1%[11.4 µM]
CNC(Cc1c[nH]c2ccccc12)C(=O)O (centres undefined)	-12.0%
NC(=NCCCC(N)C(=O)O)N[N+](=O)[O-] (centres undefined)	-6.9%
NCCCP(=O)(O)CC1CCCCC1	5.2%&-26.2%
CN1C[C@@H](CO)C=C2c3cccc4[nH]cc(c34)CC21 (some centres undefined)	-3.2%
CC(C)C[C@H](NC(=O)[C@H](Cc1ccccc1)NC(=O)CNC(=O)[C@H](CO)NC(=O)[C@@H](N)Cc1ccc(O)cc1)C(=O)N[C@H](C(=O)O)[C@H](C)O	-3.4%[11.4 µM]
CCCN1CCc2cccc3c2[C@H]1Cc1ccc(O)c(O)c1-3	?
CCN(CC)C(=O)[C@@H]1C=C2c3cccc4[nH]cc(c34)C[C@H]2N(C)C1	11.0%
c1csc(CN2CC[C@@]3(CCCNC3)C2)n1	?
C[C@]12CC[C@H]3[C@@H](CC[C@@]45O[C@@H]4C(O)=C(C#N)C[C@]35C)[C@@H]1CC[C@@H]2O	19.2%
C[C@]12CC[C@H]3[C@@H](CCC4=C(O)C(=O)CC[C@@H]43)[C@@H]1CC[C@@H]2OC(=O)CCC1CCCC1	4.0%
CN1CCc2cc(Cl)c(O)cc2[C@H]2c3ccccc3CC[C@@H]21	10.4%
CNC1(c2ccccc2Cl)CCCCC1=O (centres undefined)	8.5%&-3.6%
O=C(O)Cc1cnc[nH]1	-1.1%&-28.8%&-4.8%
CN1CCN(c2ncc3ncc(=O)n(C)c3n2)CC1	1.1%
Cc1ncc(CNC(=O)N(CCCl)N=O)c(N)n1	3.7%&11.9%
O=C(NC(=O)c1c(F)cccc1F)Nc1ccc(Cl)cc1	-9.7%
COc1c2c(cc3c1OCO3)CC[N+](C)=C2	0.4%&-9.9%
CC(Cc1ccc(O)cc1)NCC(O)c1cc(O)cc(O)c1 (centres undefined)	-13.2%&-2.3%&23.1%
Cc1ncsc1CCCl	?
COC(=O)C1=CO[C@@H](C)[C@@H]2CN3CC[C@]4(C(=O)Nc5c4ccc(OC)c5OC)[C@H]3C[C@H]12	13.8%
Cc1ccccc1-n1c(CF)nc2ccc(N)cc2c1=O	7.4%
c1ccc(N2CC[C@@]3(CCCNC3)C2)cc1	-11.4%
N#C/C(=C\c1ccc(O)cc1)C(=O)O	-1.1%
CCOC(=O)c1ccccc1C(=O)OCC	-15.5%
CC[C@]1(C2=NCCN2)Cc2ccccc2O1	-10.7%
CCCN1CCC[C@@H]2Cc3nc(N)ncc3C[C@H]21	-3.0%&-1.8%
C=C(C)c1cc2cc(C(C)=O)c(O)cc2o1	-11.6%&-15.0%
C[C@@H](N)[C@@H](O)c1ccccc1	3.7%[56.6 µM]
O=C(O)c1nn(Cc2ccc(Cl)c(Cl)c2)c2ccccc12	-3.0%

Next section
SMILES	EPAC2 ant val
CC[C@]1(O)CC(O[C@@H]2CC(N(C)C)C(O)C(C)O2)c2c(cc3c(c2O)C(=O)c2c(O)cccc2C3=O)C1C(=O)OC (some centres undefined)	20.7%
O=C(O)CCCOc1ccc(Cl)cc1Cl	-14.7%
CC(C)(C)CC(C)(C)c1ccc(O)cc1	56.2µM*
CCNc1nc(Cl)nc(NC(C)C)n1	-13.5%
C[N+]1(CCF)[C@@H]2CC[C@H]1CC(OC(=O)C(O)(c1ccccc1)c1ccccc1)C2 (some centres undefined)	3.4%
CN(CCCC(=O)c1cccnc1)N=O	-19.2%
CCC[C@@H]1CC2=CC(=O)CC[C@]2(C)[C@@H]2CC[C@@]3(C)[C@H](CC[C@]3(O)CCC(=O)O)[C@H]12	-6.8%
O=[N+]([O-])/N=C1\NCCN1Cc1ccc(Cl)nc1	-11.6%&-15.2%
NC1=NC(=O)C(c2ccccc2)O1 (centres undefined)	11.8%
CC1(C)C(=O)C=C[C@@]2(C)C1CC(O)[C@]1(C)C2CC[C@@]2(C)C(c3ccoc3)OC(=O)C3O[C@]312 (some centres undefined)	-20.9%
CN1CCc2cc3c(cc2C1C1OC(=O)c2c1ccc1c2OCO1)OCO3 (centres undefined)	-14.5%&-8.9%
C=C(C)C1Cc2c(ccc3c(=O)c4c(oc23)COc2cc(OC)c(OC)cc2-4)O1 (centres undefined)	-2.8%&-18.8%
CCCCCCCCCc1ccc(O)cc1	44.7µM*
Cc1nc2cnc(N3CCNCC3)nc2n(C)c1=O	-25.5%
C=CCN1CC[C@]23c4c5ccc(O)c4O[C@H]2/C(=N/NC(=O)c2ccccc2)CC[C@@]3(O)[C@H]1C5	?
CC1CCC2C(C)C(=O)OC3OC4(C)CCC1C32OO4 (centres undefined)	-25.8%
Cc1cc([C@@H]2CCCN2C)on1	-4.7%
C=CC(=O)NCNC(=O)C=C	16.3%[239 µM]

Of the compounds above, 15 contain a Cl atom:
SMILES	EPAC2 ant val
Cc1ccc(S(=O)(=O)N[C@@H](CCCCN)C(=O)CCl)cc1	20.6%&13.0%
O=C(/C=C/c1ccc(Cl)cc1)N[C@@]12CCC(=O)[C@@H]3Oc4c(O)ccc5c4[C@@]31CCN(CC1CC1)C2C5	-0.7%
OC[C@H]1O[C@@H](n2cnc3cc(Cl)c(Cl)cc32)[C@H](O)[C@H]1O	8.4%
CCOC(=O)NC(O)C(Cl)(Cl)Cl (centres undefined)	13.6%
C[C@H](Cc1ccc2c(c1)OC(C(=O)O)(C(=O)O)O2)NC[C@H](O)c1cccc(Cl)c1	-2.1%
O=C(/C=C\c1ccc(Cl)cc1)N[C@@]12CCC(=O)[C@@H]3Oc4c(O)ccc5c4[C@@]31CCN(CC1CC1)[C@@H]2C5	-19.6%
CN1CCc2cc(Cl)c(O)cc2[C@H]2c3ccccc3CC[C@@H]21	10.4%
CNC1(c2ccccc2Cl)CCCCC1=O (centres undefined)	8.5%&-3.6%
Cc1ncc(CNC(=O)N(CCCl)N=O)c(N)n1	3.7%&11.9%
O=C(NC(=O)c1c(F)cccc1F)Nc1ccc(Cl)cc1	-9.7%
Cc1ncsc1CCCl	?
O=C(O)c1nn(Cc2ccc(Cl)c(Cl)c2)c2ccccc12	-3.0%
O=C(O)CCCOc1ccc(Cl)cc1Cl	-14.7%
CCNc1nc(Cl)nc(NC(C)C)n1	-13.5%
O=[N+]([O-])/N=C1\NCCN1Cc1ccc(Cl)nc1	-11.6%&-15.2%
